rRNA inh HTS = inhibits bacterial ribosomal RNA function over humanized ribosomes | E. coli WT GFP vs humanized-ribosome RFP mutants, fluorescence, 24 h; stronger effect = lower value; DMSO median 0, no signal -100 | GFP signal change (wild-type ribosome), % (no concentration beside the values) | actives 1.6% (n = 350,000);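 active means significant combined selectivity score with lowered wild-type GFP, culture density cut under 30%, mutant RFP and density less affected; inactive means any of these conditions unmet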; further: one replicate is shown; some compounds called inactive have numbers as strong as hits
MLL AF4-AF9 inh = MLL-AF4/AF9 protein interaction inhibition; P42568; AlphaScreen, biotin-AF4 peptide binding to FLAG-AF9; inhibition, % at 10 µM; actives 0.47% (n = 350,000);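 active means every replicate reaching a set inhibition limit, whatever the replicate mean, cut at about 25% in these data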;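 further: 0% = plate neutral control median and 100% = total signal loss; the record names both 10 and 1 µM as test concentration; the first replicate is given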
Target sequence (P42568 whole entry, looked up): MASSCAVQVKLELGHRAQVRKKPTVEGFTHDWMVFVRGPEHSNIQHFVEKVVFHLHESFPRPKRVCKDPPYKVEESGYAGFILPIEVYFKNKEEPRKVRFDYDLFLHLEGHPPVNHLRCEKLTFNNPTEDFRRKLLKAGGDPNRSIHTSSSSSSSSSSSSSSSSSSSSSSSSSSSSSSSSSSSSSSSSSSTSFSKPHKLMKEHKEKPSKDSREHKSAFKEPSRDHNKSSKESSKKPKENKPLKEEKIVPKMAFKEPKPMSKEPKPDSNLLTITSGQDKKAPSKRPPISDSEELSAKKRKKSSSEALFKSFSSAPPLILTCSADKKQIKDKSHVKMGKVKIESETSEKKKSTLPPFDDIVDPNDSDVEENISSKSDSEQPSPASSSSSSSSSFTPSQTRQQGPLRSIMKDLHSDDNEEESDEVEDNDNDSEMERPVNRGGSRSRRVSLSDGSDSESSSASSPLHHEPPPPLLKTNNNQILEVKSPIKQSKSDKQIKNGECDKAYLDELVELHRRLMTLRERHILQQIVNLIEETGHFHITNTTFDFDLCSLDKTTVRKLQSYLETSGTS
rRNA inh HTS OD600 = second read-out of rRNA inh HTS, no call of its own (marks repeat the call); OD600 change, %; measured here: OD600 growth;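 optical density of the mix in the first replicate; 0 = DMSO median and -100 = no signal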
rRNA inh HTS RFP = also measured in rRNA inh HTS; calls as there; RFP signal change, %; measured here: RFP humanized mutant strains;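 first replicate; 0 = DMSO median and -100 = no signal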
Numbers without * were called inactive; & = joins results of further samples. These rows are one share of the data; count on the stated rates, not on these rows.

Compound	rRNA inh HTS	rRNA inh HTS OD600	rRNA inh HTS RFP	MLL AF4-AF9 inh
Cc1ccc(S(=O)(=O)N(C)C[C@@H]2Oc3cc(Br)ccc3S(=O)(=O)N([C@@H](C)CO)C[C@H]2C)cc1	2	-26	5.6	0.9
C[C@@H]1CCCCO[C@H](CN(C)C(=O)CCCN(C)C)[C@@H](C)CN([C@@H](C)CO)C(=O)c2cc(NC(=O)Nc3ccc(F)cc3)ccc2O1	3	1	2.5	0.3
Cc1ccccc1Cn1c(C)c(C(=O)NCC(C)C)sc1=O	6	8	-2.8	2.9
COc1ccc(NC(=O)N(C)C[C@H]2Oc3ccc(NC(=O)Nc4ccc5c(c4)OCO5)cc3C(=O)N([C@H](C)CO)C[C@H]2C)cc1	1	5	0.2	2.8
CC(C)c1cn(CC[C@H]2CC[C@H](NC(=O)C3CCOCC3)[C@H](CO)O2)nn1	1	1	-2.2	-1.9
COc1cccc(NC(=O)C[C@H]2CC[C@H]3[C@H](COc4ccc(NC(C)=O)cc4C(=O)N3C)O2)c1	2	2	-3.5	1.3
CCNC(=O)C[C@@H]1CC[C@H]2[C@@H](COc3ccc(NC(=O)Nc4ccc(Cl)cc4)cc3C(=O)N2C)O1	-4	0	-2.1	1.0
CC(C)c1cn(CC[C@H]2CC[C@@H](NS(=O)(=O)c3ccc(F)cc3)[C@@H](CO)O2)nn1	-2	-6	-0.9	-0.5
CC1(C(=O)Nc2ccc(Cl)c(Cl)c2)CCN1C(=O)CCC1CCCC1 (configuration not stated)	-3	-34	37	-3.6
C[C@@H]1CN([C@@H](C)CO)C(=O)Cc2cc(NC(=O)Nc3cccc4ccccc34)ccc2O[C@H]1CN(C)S(=O)(=O)c1ccc(Cl)cc1	5	5	1.5	0.0
C[C@@H]1CN([C@H](C)CO)C(=O)c2cc(C#CC3CCCCC3)cnc2O[C@H]1CN(C)C(=O)Cc1ccccn1	2	5	0.7	-3.2
CC(=O)c1cccc(NC(=O)C2(C)Cc3c(-c4cccc(C(F)(F)F)c4)ccnc3O2)c1 (configuration not stated)	-11	-25	3.4	-8.6
CC(C)C#Cc1ccc([C@H]2[C@@H](C#N)N(C(=O)C3CCOCC3)[C@H]2CO)cc1	2	4	1.1	-0.9
C[C@H](CO)N1C[C@H](C)[C@H](CN(C)S(=O)(=O)c2cccc(F)c2)Oc2ncc(-c3cccc(C(=O)N(C)C)c3)cc2C1=O	10&5	5&11	8.6&-2.0	-2.7&-4.7&-6.4
COc1cccc(NC(=O)Nc2ccc3c(c2)C(=O)N(C)[C@@H]2CC[C@@H](CC(=O)NCCc4ccccc4)O[C@H]2CO3)c1	-4	-16	2.0	-3.2
C[C@@H]1CN([C@@H](C)CO)C(=O)c2cc(N(C)C)ccc2O[C@H]1CN(C)Cc1ccc(-c2ccccc2)cc1	-3	6	0.8	34*
C[C@H]1CCCCO[C@@H](CN(C)C)[C@@H](C)CN([C@@H](C)CO)C(=O)c2cc(NC(=O)Cc3ccccc3)ccc2O1	3	2	-1.7	-0.3
O=C(Cc1ccc(NC(=O)C2CCN(C(=O)c3ccccc3)CC2)cc1)Nc1ccc(C(=O)N2CCOCC2)cc1	6	18	2.9	12
CCC(=O)Nc1ccc2c(c1)OC[C@H](C)N(CC1CCOCC1)C[C@@H](C)[C@H](OC)CN(C)C2=O	1	1	-0.7	0.8
CCC(=O)Nc1ccc2c(c1)OC[C@@H](C)N(CC1CC1)C[C@@H](C)[C@@H](OC)CN(C)C2=O	3	-5	-2.8	-0.9
COCCNC(=O)C(=O)NCC1CCCN1S(=O)(=O)c1cccs1 (configuration not stated)	12	15	4.9	-2.1
CC(=O)Nc1ccc(Nc2nccc(C)n2)cc1	11	8	-0.2	-0.5
CCS(=O)(=O)N[C@H]1CC[C@@H](CC(=O)NCc2ccc(F)cc2)O[C@@H]1CO	2	2	3.8	-1.8
COc1ccc2c3c([nH]c2c1)[C@@H](CO)N(C(=O)c1ccncc1)CC31CCN(C(=O)c2ccncc2)CC1	3	7	-2.1	4.5
CC(C)C#Cc1cnc2c(c1)C(=O)N([C@@H](C)CO)C[C@H](C)[C@@H](CN(C)C(=O)Nc1ccccc1F)O2	0	1	2.6	-2.5
COCC(=O)Nc1ccc2c(c1)OC[C@H](C)N(C(=O)NC(C)C)C[C@@H](C)[C@H](OC)CN(C)C2=O	3	3	-3.7	-1.8
C[C@@H]1CCCCO[C@H](CN(C)Cc2ccccc2)[C@@H](C)CN([C@@H](C)CO)C(=O)c2cc(NC(=O)CCCCCC(=O)Nc3ccccc3N)ccc2O1	3	6	0.6	5.4
C[C@H](CO)N1C[C@H](C)[C@@H](CN(C)Cc2ccc(Cl)c(Cl)c2)OCCCC[C@H](C)Oc2ccc(NS(C)(=O)=O)cc2C1=O	-28	-41	19	4.3
Cc1noc(C)c1S(=O)(=O)Nc1ccc2c(c1)C(=O)N([C@H](C)CO)C[C@@H](C)[C@H](CN(C)C(=O)c1ccccc1)OCCCC[C@@H](C)O2	-5	0	0.0	-6.8
C[C@H]1CN([C@@H](C)CO)C(=O)c2cccc(NS(=O)(=O)c3cccs3)c2O[C@H]1CN(C)C(=O)Nc1ccc2c(c1)OCO2	5	1	-1.1	-0.5
COC(=O)C[C@H]1CC[C@@H](NS(=O)(=O)c2ccccc2)[C@@H](CO)O1	7	8	2.1	-4.0
C[C@H](CO)N1C[C@H](C)[C@@H](CN(C)S(=O)(=O)c2ccc(F)cc2)Oc2ccc(N(C)C)cc2CC1=O	1	4	-0.1	4.9
O=C(COC(=O)c1cccs1)Nc1cccc(Cl)c1	-4	-5	1.5	1.0
C[C@@H]1CN([C@@H](C)CO)C(=O)c2cc(NC(=O)CCCN(C)C)ccc2O[C@H]1CN(C)Cc1ccc(-c2ccccc2)cc1	3	-2	3.5	8.7
C[C@@H]1CN([C@H](C)CO)C(=O)c2cc(N(C)C)ccc2O[C@@H]1CN(C)Cc1ccncc1	-2	0	0.8	-2.5
Cc1noc(C)c1S(=O)(=O)Nc1ccc2c(c1)C(=O)N([C@H](C)CO)C[C@H](C)[C@H](CN(C)Cc1ccncc1)OCCCC[C@H](C)O2	4	10	3.2	2.2
C[C@@H]1CN([C@@H](C)CO)C(=O)CCCn2cc(nn2)CO[C@H]1CN(C)C(=O)Nc1ccccc1	-1&4	-13&15	2.8&-1.6	-2.0&-1.2
CO[C@H]1CN(C)C(=O)c2ccc(NC(=O)Nc3ccccc3)cc2OC[C@@H](C)N(C(=O)CC2CC2)C[C@@H]1C	0	-3	2.3	-0.5
COc1ccc(NC(=O)N(C)C[C@H]2Oc3ccc(NS(=O)(=O)c4ccc(OC)cc4)cc3C(=O)N([C@H](C)CO)C[C@H]2C)cc1	-1	0	-1.1	1.0
COc1cc(OC)c2c(=O)c3c(C(=O)O)c(O)ccc3oc2c1	7	0	-2.4	-7.4
C[C@@H]1CN([C@H](C)CO)C(=O)Cc2cc(NC(=O)CCC(F)(F)F)ccc2O[C@@H]1CN(C)Cc1ccc(-c2ccccc2)cc1	-1	0	2.7	0.4
COc1cccc(NC(=O)Nc2ccc3c(c2)C(=O)N(C)[C@H]2CC[C@@H](CC(=O)NCCc4ccccc4)O[C@@H]2CO3)c1	-8	-20	0.2	1.5
C[C@H]1CCCCO[C@@H](CN(C)S(=O)(=O)c2ccccc2)[C@@H](C)CN([C@@H](C)CO)C(=O)c2cc(NS(C)(=O)=O)ccc2O1	-5	-3	2.4	1.4
CCCNC(=O)N[C@@H]1CC[C@@H](CC(=O)N2CCN(C)CC2)O[C@@H]1CO	3	11	0.7	0.0
COc1ccc(S(=O)(=O)N(C)C[C@H]2Oc3ccc(NC(=O)Cc4cn(C)c5ccccc45)cc3C(=O)N([C@@H](C)CO)C[C@H]2C)cc1	3	7	-0.5	-0.5
CCC(=O)N[C@H]1CC[C@H](CC(=O)NCc2ccccc2OC)O[C@H]1CO	2	2	-3.6	-0.9
CCCNC(=O)[C@@H]1[C@@H](CO)[C@@H]2Cn3c(ccc(-c4ccccc4F)c3=O)[C@@H]2N1C(=O)CC	2	1	-2.9	-1.1
CCOC1CCCc2oc(-c3ccc(OC)cc3)c(C(=O)NCCCCO)c21 (configuration not stated)	6	10	-5.4	1.3
C/C=C/c1ccc([C@H]2[C@@H](CO)N3C(=O)CN(C(=O)Nc4ccccc4F)C[C@@H]23)cc1	1	15	-0.2	0.6
Cc1ccc(NC(=O)c2ncn(CCCNCC(C)c3ccccc3)n2)cc1C (configuration not stated)	-25	-25	0.6	5.4

(cont.)
| structure | rRNA inh HTS | rRNA inh HTS OD600 | rRNA inh HTS RFP | MLL AF4-AF9 inh |
| --- | --- | --- | --- | --- |
| CO[C@@H](CN(C)S(=O)(=O)c1cccc(Cl)c1)[C@@H](C)CN(C(=O)Nc1ccccc1F)[C@H](C)CO | -5 | -7 | 1.3 | -0.6 |
| CCc1nc2ccc(C(=O)NCCOc3ccc(OC)cc3)cn2c1N(C=O)Cc1ccc(OC)cc1 | -4 | 2 | 1.7 | 0.5 |
| CO[C@@H]1CN(C)C(=O)c2ccc(NC(=O)C3CCC3)cc2OC[C@@H](C)N(Cc2nccs2)C[C@H]1C | -1 | -1 | -0.9 | -1.2 |
| O=C(C[C@@H]1CC[C@H]2[C@@H](COC[C@@H](O)CN2CCC(F)(F)F)O1)NCc1ccc2c(c1)OCO2 | -1 | 9 | -1.3 | 0.1 |
| CCCNC(=O)C[C@H]1CC[C@@H]2[C@@H](COc3ccc(NC(=O)CC)cc3C(=O)N2C)O1 | 3 | 8 | -0.5 | -1.0 |
| C[C@@H]1CN([C@@H](C)CO)C(=O)c2cc(NC(=O)c3ccncc3)ccc2O[C@@H]1CN(C)S(C)(=O)=O | -1 | 8 | 2.1 | -3.0 |
| O=C(C[C@H]1C[C@H]2c3cc(NC(=O)C4CCC4)ccc3O[C@H]2[C@@H](CO)O1)NCc1ccc(Cl)cc1 | -1 | 4 | 0.8 | -1.2 |
| O=C(NCC[C@@H]1CC[C@@H](NC(=O)C2CCCC2)[C@H](CO)O1)c1cnccn1 | 4 | 8 | -1.4 | -2.1 |
| O=C(C1CC1)N1CC2(C1)[C@@H](c1ccccc1)[C@@H](CO)N2Cc1ccc(Cl)cc1 | -14 | -27 | 8.0 | 2.9 |
| O=C([C@H]1[C@H](CO)[C@H]2Cn3c(ccc(-c4cccnc4)c3=O)[C@@H]1N2CC1CC1)N1CCCCC1 | 0 | -6 | -0.4 | 1.7 |
| C[C@@H]1CN([C@@H](C)CO)C(=O)c2cccc(NC(=O)C3CCOCC3)c2O[C@H]1CN(C)Cc1ccccc1 | -3 | 1 | -1.3 | -2.6 |
| COc1ccc(CNC(=O)C[C@H]2C[C@H]3c4cc(N(C)C)ccc4O[C@H]3[C@H](CO)O2)cc1 | -2 | -4 | -0.6 | 2.3 |
| Cc1ccc(S(=O)(=O)N2CC[C@@H]3[C@H](CO)Nc4ccc(-c5ccccc5F)cc4[C@@H]32)cc1 | 0 | 8 | 4.3 | -8.4 |
| C[C@H](CO)N1C[C@H](C)[C@@H](CN(C)C(=O)CN(C)C)Oc2cc(C#CC(C)(C)O)ccc2S1(=O)=O | 1 | 12 | 0.9 | -2.5 |
| CO[C@H]1CC[C@@H]2CCN(C)C(=O)C[C@H](c3ccccc3)CN(C)C(=O)c3cc(C#N)ccc3OC[C@H]1O2 | 4 | 7 | -2.1 | -0.1 |
| O=C(Cc1ccccc1)N1CC(=O)N2[C@@H](CO)[C@H](c3ccc(Br)cc3)[C@@H]2C1 | -3 | 3 | 0.3 | -2.9 |
| CC(C)NC(=O)Nc1cccc2c1O[C@@H](CN(C)Cc1ccncc1)[C@@H](C)CN([C@@H](C)CO)C2=O | 0 | 8 | -0.9 | 0.5 |
| COc1cccc(NC(=O)Nc2nnc([C@@H]3C[C@H](O)[C@@H](CO)O3)s2)c1 | 14 | 19 | 4.9 | 0.2 |
| C[C@@H]1CN([C@@H](C)CO)C(=O)Cc2cc(NC(=O)CCC(F)(F)F)ccc2O[C@@H]1CN(C)C(=O)Nc1ccc(F)cc1 | 3 | 3 | 1.5 | -4.9 |
| CCCC#Cc1cnc2c(c1)C(=O)N([C@H](C)CO)C[C@H](C)[C@H](CN(C)Cc1ccc(C(=O)O)cc1)O2 | 2 | 9 | -3.3 | 1.5 |
| C[C@@H]1CN([C@@H](C)CO)C(=O)c2c(c3ccccc3n2C)-c2ccccc2CO[C@@H]1CN(C)Cc1ccccc1C(F)(F)F | 1 | -12 | -6.3 | -9.9 |
| CS(=O)(=O)N1CCCCN2[C@H](C1)[C@@H](c1ccc(C#Cc3ccccn3)cc1)[C@@H]2CO | 2 | 27 | -1.4 | -8.2 |

Just rRNA inh HTS, rRNA inh HTS RFP and MLL AF4-AF9 inh, for 4 of the compounds above:
| smiles | rRNA inh HTS | rRNA inh HTS RFP | MLL AF4-AF9 inh |
| --- | --- | --- | --- |
| O=C(Cc1ccc(NC(=O)C2CCN(C(=O)c3ccccc3)CC2)cc1)Nc1ccc(C(=O)N2CCOCC2)cc1 | 6 | 2.9 | 12 |
| CCC(=O)Nc1ccc2c(c1)OC[C@H](C)N(CC1CCOCC1)C[C@@H](C)[C@H](OC)CN(C)C2=O | 1 | -0.7 | 0.8 |
| CCC(=O)Nc1ccc2c(c1)OC[C@@H](C)N(CC1CC1)C[C@@H](C)[C@@H](OC)CN(C)C2=O | 3 | -2.8 | -0.9 |
| COCCNC(=O)C(=O)NCC1CCCN1S(=O)(=O)c1cccs1 (configuration not stated) | 12 | 4.9 | -2.1 |

Assay outcomes from PubChem.
